Sa RN4220 lethal: growth inhibition of S. aureus RN4220, primary screen, OD600. 16 h. inhibition, % (concentration not given with the values). 0.33% of 330,000 active. AID 1259311, 2017;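 active = z-score of -3 or lower and OD600 up to 0.18 on both plates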;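 also: plate controls were untreated cells for no effect and reference antibiotic for full effect; stock transfer was 100 nL into about 80 µL; one replicate is shown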
BJeLR viability: MLPCN primary cell-based screen for lethality selective to Ras in HRASV12 cells. BJeLR (HRASV12) viability, CellTiter-Glo ATP luminescence, 48 h; reference of the scale not given here. inhibition, % (test concentration not listed). 0.17% of 300,000 active. AID 1554, 2009;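 active = replicate mean above 50%; inconclusive = above 50% but judged a plate artefact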;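 also: 50 nL library stock added to about 25 µL; numbers are from one replicate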
Autofluor counter: counter-screen for toxin protease inhibitors: compound fluorescence; fluorescence intensity (concentration not given with the values); 3.1% of 360,000 active; compound autofluorescence counterscreen, microsphere flow cytometry; stronger effect = higher value;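 active = at least 3 SD above the mean of all compounds, about 16000 in these data; inconclusive = too few beads counted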;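 also: 100 nL of 1 mM stock went into each well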
ugtP null kill: growth inhibition of ugtP-null S. aureus, primary screen, RN4220 ugtP deletion, OD600; 16 h; some inactives read as strong as hits; AID 1259309, 2017; growth inhibition, % (no concentration beside the values); 0.54% of 330,000 active;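 active = z-score under -3 and OD600 up to 0.15 on both plates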;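 also: plate controls were untreated wells for no effect and antibiotic for full effect; wells of about 80 µL received 100 nL stock; the first replicate is given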
Mtb hypoxia rep: PubChem AID 1159583; M. tuberculosis hypoxia-regulated fluorescent reporter, fluorescence; fluorescence inhibition, % (test concentration not listed); 0.1% of 300,000 active;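 active = 35 to 45% if threefold the growth effect, above 45% if 1.5-fold the growth effect; inactive = the rest, general growth blockers included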;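 also: wells of about 50 µL received 100 nL stock; 0% = vehicle wells and 100% = reference inhibitor wells; whole bacteria with a GFP reporter of the hypoxia response; strong numbers were not always called active; many hits fall short of the cut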
PrP UTR inh: inhibition of PrP 5' UTR reporter expression; cell-based PrP 5' UTR mRNA reporter, plate reader; inhibition, % (concentration not given with the values); 0.35% of 340,000 active; AID 488862, 2010;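 active = every replicate at 50% or more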;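 also: 0 = median of the neutral control wells; tested in H4 reporter cells; numbers are from one replicate; inactives centre near -14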
Mtb hypoxia rep growth: recorded beside Mtb hypoxia rep, whose call it bears; growth inhibition, %; measured here: M. tuberculosis growth (absorbance);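 0% = vehicle and 100% = reference antibiotic; read after six days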
The depositor's hits bear a star; ? = inconclusive; nt = not tested or not shown.

1	Cc1cc(C(=O)OCC(=O)NC(C)c2ccc(F)cc2)c(C)o1 (stereo not drawn)
2	CS(=O)(=O)c1ccc2nc(NC(=O)Nc3ccc(Cl)cc3)sc2c1
3	COc1ccccc1/C=C/C(=O)OCC(=O)NCc1ccc2c(c1)OCO2
4	COc1ccc(-c2cc(C(F)F)n3ncc(C(=O)Nc4c(C)n(C)n(-c5ccccc5)c4=O)c3n2)cc1
5	CCOC(=O)c1c(C)[nH]c(C(=O)COC(=O)COc2ccccc2C=O)c1C
6	COc1cccc(NC(=O)Cn2cnc3sc(C)c(S(=O)(=O)N4CCCCC4)c3c2=O)c1
7	COC(=O)C1=C(N)Oc2cc(C)n(CC3CCCO3)c(=O)c2C1c1ccc(Cl)cc1 (stereo not drawn)
8	O=C(CNCc1ccco1)Nc1cccc(S(=O)(=O)N2CCCCC2)c1

compound no.,1,2,3,4,5,6,7,8
Sa RN4220 lethal,-1.3,0.7,-0.2,5.0,12,1.7,-15,3.0
BJeLR viability,nt,1,nt,3,-2,4,1,-9
Autofluor counter,3833,2539,3197,3432,2564,9702,3088,4919
ugtP null kill,-1,-2,3,0,6,4,-7,4
Mtb hypoxia rep,-5,11,-1,4,10,2,12,5
Mtb hypoxia rep growth,2,7,2,2,5,-7,9,4
PrP UTR inh,1,-1,-19,-21,-8,-23,-17,-18

9	Cn1c(N2CCN(C(=O)NC34CC5CC(CC(C5)C3)C4)CC2)nc2ccccc21
10	COCCOc1ccc(C(F)(F)F)cc1NC(=O)COC(=O)C1=COCCO1
11	Cc1ccc2c(c1)NC(=O)C(CC(=O)NCCCN1CCCCC1C)O2 (stereo not drawn)
12	CNC(=S)N(CCc1c(C)[nH]c2ccc(Cl)cc12)Cc1cccnc1
13	CC(C)c1ccc(C(=O)NCc2ccc(Cl)cc2)cc1
14	O=C(NN=Cc1ccncc1)c1cc([N+](=O)[O-])cc([N+](=O)[O-])c1O
15	COC(=O)c1ccc(NC(=O)c2cccc(C)c2[N+](=O)[O-])cc1
16	Cc1cccnc1NC(=O)Nc1cccc(Cl)c1

compound no.,9,10,11,12,13,14,15,16
Sa RN4220 lethal,5.8,4.0,-2.3,23,-5.0,1.9,-0.4,0.3
BJeLR viability,-6,1,-6,-8,1,nt,1,-2
Autofluor counter,8515,nt,4770,2912,2510,nt,1931,3828
ugtP null kill,3,5,2,3,13,-2,6,-2
Mtb hypoxia rep,8,3,nt,14,2,4,4,3
Mtb hypoxia rep growth,11,-4,nt,6,3,7,2,2
PrP UTR inh,-27,-17,0,-9,-11,nt,-25,-68

17	Clc1cccc(Sc2ccc(-c3ccccn3)s2)c1
18	O=C(NCCOc1ccc(F)cc1)C1CCN(S(=O)(=O)c2ccccc2)CC1
19	Cc1ccc(C(C)NC(=O)c2c(-c3ccccc3)noc2C)cc1C (stereo not drawn)
20	FC(F)Oc1ccccc1NC(=S)Nc1cccnc1
21	Cn1c(=O)n(CC(=O)NC2CCCCC2)c(=O)c2ccccc21
22	CCOC(=O)C1CCN(C(=O)c2cc3cc4ccc(OC)cc4nc3o2)CC1
23	Cc1ccc(NC(=O)C2CC(=O)N(c3ccc4c(c3)OCCO4)C2)cc1S(=O)(=O)N1CCCCCC1 (stereo not drawn)
24	NS(=O)(=O)c1ccc(NCc2ccccc2OCc2ccc(F)cc2)cc1

compound no.,17,18,19,20,21,22,23,24
Sa RN4220 lethal,-5.5,0.8,13,1.2,0.2,3.2,5.0,6.9
BJeLR viability,-5,0,4,-1,-4,-2,14,-2
Autofluor counter,5279,5472,6439,5235,3771,5530,6928,2251
ugtP null kill,-12,6,-1,4,0,3,-5,-4
Mtb hypoxia rep,0,3,-5,5,nt,10,-14,nt
Mtb hypoxia rep growth,0,-1,-18,2,nt,-2,-2,nt
PrP UTR inh,-11,-10,-65,-15,-13,-46,-3,-1

25	O=C(CC(O)c1ccncc1)c1ccccc1O (stereo not drawn)
26	CC(C)C[C@H]1CN=C(Nc2ccccc2)N1CCC1CCCC1
27	CC1CC1c1ccc(/C=C(\C#N)C(=O)Nc2cccc(Cl)c2Cl)o1 (stereo not drawn)
28	CC(C)c1ccc(C2(C)NC(=O)N(CC(=O)N3CCN(C(=O)c4cccs4)CC3)C2=O)cc1 (stereo not drawn)
29	COc1cccc(OCCCn2cc(/C=C3/C(=N)N4C=C(C)SC4=NC3=O)c3ccccc32)c1
30	O=[N+]([O-])c1ccc(CSc2nnc(-c3cccnc3)o2)cc1
31	COCCn1c(SCC(=O)NC2CCCCC2)nc2c(c1=O)SCC2
32	CCN1CCN(c2ccc(S(=O)(=O)N3CCCCC3)cc2NC(=O)Cc2ccc(OC)cc2)CC1

compound no.,25,26,27,28,29,30,31,32
Sa RN4220 lethal,0.4,nt,-10,4.5,0.8,2.6,-0.3,nt
BJeLR viability,nt,0,-3,nt,-4,11,1,-1
Autofluor counter,3671,4215,2487,4646,24218*,3499,6124,5310
ugtP null kill,0,nt,3,5,-8,4,2,nt
Mtb hypoxia rep,8,nt,3,5,0,nt,4,nt
Mtb hypoxia rep growth,23,nt,5,-2,-7,nt,1,nt
PrP UTR inh,-12,-22,-22,nt,-7,-4,-28,-23

33	Cc1cc(/C=C(\C#N)C(=O)NCc2cccs2)c(C)[nH]1
34	O=C1COc2ccc(C(=O)COC(=O)c3cnc(Cl)c(Cl)c3)cc2N1
35	CCn1nc(C)c(Br)c1-c1nc(CS(=O)(=O)c2ccsc2)no1
36	Cc1cc(C)cc(NC(=O)C2CC3CCC2C3)c1 (stereo not drawn)
37	Cc1c(Cl)cccc1NC(=O)CNC(=O)CCCc1nc2ccccc2c(=O)[nH]1
38	O=C(NCc1ccccc1)c1ccc(Cl)c(S(=O)(=O)N2CCCC2)c1
39	CCOc1ccc(NC(=O)CSc2nnc(Cn3cnc4ccccc43)n2C)cc1
40	O=C(Nc1cc2c3c(c1)CC(=O)N3CCC2)c1ccc(Br)o1

compound no.,33,34,35,36,37,38,39,40
Sa RN4220 lethal,4.2,3.7,3.6,2.1,2.6,-0.3,0.4,5.7
BJeLR viability,1,6,-13,1,nt,nt,-2,-3
Autofluor counter,4030,4318,3552,3960,4668,3594,4087,5678
ugtP null kill,10,-7,13,0,8,1,5,0
Mtb hypoxia rep,-2,2,-1,-12,10,21,nt,-3
Mtb hypoxia rep growth,-4,5,-5,-11,4,6,nt,-8
PrP UTR inh,-3,-15,nt,-9,-14,-28,-6,-31

41	COCCN(CC(=O)NCC1CCCO1)C(=O)CCC(=O)Nc1ccccn1 (stereo not drawn)
42	O=C(NCCN1CCOCC1)C(=O)NCc1ccc2c(c1)OCO2
43	CCC(C(=O)O)N1C(=O)/C(=C/C(C)=C/c2ccccc2)SC1=S (stereo not drawn)
44	CCOC(=O)Nc1c(C(=O)OC)[nH]c2cc(OC)ccc12
45	Cc1nonc1CN(C)C(=O)c1ccc(OC2CCN(C(=O)c3cccnc3)CC2)cc1
46	COc1ccc(CCC(=O)NCc2cccc(C(F)(F)F)c2)cc1
47	Cc1ccc(C(=O)O)cc1NC(=O)Nc1cccc2ccccc12
48	COc1cccc(CNC(=O)CCS(=O)(=O)c2ccc3c(c2)oc(=O)n3C)c1

compound no.,41,42,43,44,45,46,47,48
Sa RN4220 lethal,1.9,2.2,13,3.4,4.9,0.4,-3.1,2.9
BJeLR viability,-5,1,-10,12,20,1,2,-1
Autofluor counter,4928,4280,4339,3280,4253,2747,5410,5936
ugtP null kill,3,1,13,-6,7,11,-8,4
Mtb hypoxia rep,4,-10,-3,5,7,-8,-9,18
Mtb hypoxia rep growth,5,-3,-1,4,1,-7,-2,4
PrP UTR inh,-6,-73,-30,4,-2,-13,-19,-5

49	Cc1onc(-c2c(Cl)cccc2Cl)c1C(=O)NC(=S)Nc1sc2c(c1C(N)=O)CCC(C)C2 (stereo not drawn)
50	C=CCn1c(C(C)C)nc2ccccc21
51	CCOCCCNC(=O)c1ccc2c(c1)ncn2-c1ccc(CC)cc1
52	CC(=O)N1N=C(c2ccc(C)cc2)OC1c1ccc(C)cc1 (stereo not drawn)
53	CCCCc1ccc(NC(=O)CSCc2cc(=O)[nH][nH]2)cc1
54	O=C(Nc1cc(Br)ccc1O)c1cc(-c2ccco2)on1
55	O=C(Nc1nc(-c2ccccc2)cs1)c1cccc(S(=O)(=O)N2CCN(Cc3ccccc3)CC2)c1
56	Cc1ccc(C2C(C(=O)c3cc4ccccc4o3)=C(O)C(=O)N2c2cc(C)on2)cc1 (stereo not drawn)

compound no.,49,50,51,52,53,54,55,56
Sa RN4220 lethal,nt,6.4,-2.4,6.1,2.5,-0.8,3.3,nt
BJeLR viability,-16,-18,-3,-6,-8,-3,-11,-9
Autofluor counter,1940,4406,3804,5978,7292,4491,3086,5504
ugtP null kill,nt,2,4,-4,8,-19,10,nt
Mtb hypoxia rep,nt,6,2,6,4,15,-9,nt
Mtb hypoxia rep growth,nt,11,19,3,7,5,3,nt
PrP UTR inh,-4,-34,-16,-31,nt,-36,-21,2

Look-ups from the results shown.
`Cc1ccc(C2C(C(=O)c3cc4ccccc4o3)=C(O)C(=O)N2c2cc(C)on2)cc1` (stereo not drawn) @ Autofluor counter = 5504
`O=C(Nc1nc(-c2ccccc2)cs1)c1cccc(S(=O)(=O)N2CCN(Cc3ccccc3)CC2)c1` @ Mtb hypoxia rep growth = 3
`CCCCc1ccc(NC(=O)CSCc2cc(=O)[nH][nH]2)cc1` @ Sa RN4220 lethal = 2.5
`CC(=O)N1N=C(c2ccc(C)cc2)OC1c1ccc(C)cc1` (stereo not drawn) @ Sa RN4220 lethal = 6.1
`C=CCn1c(C(C)C)nc2ccccc21` @ Mtb hypoxia rep = 6
`Cc1onc(-c2c(Cl)cccc2Cl)c1C(=O)NC(=S)Nc1sc2c(c1C(N)=O)CCC(C)C2` (stereo not drawn) @ Autofluor counter = 1940

Entries by screen from the list:
Autofluor counter for entries 14–24: nt, 1931, 3828, 5279, 5472, 6439, 5235, 3771, 5530, 6928, 2251

The list goes on.
57	COCCNc1cc(C)nc2c(-c3ccccc3OC)c(C)nn12
58	CN1C(=O)C(C)(C)c2cc(S(=O)(=O)N3CCN(c4ccccc4F)CC3)ccc21
59	O=C(COc1ccc(C=NNC(=O)c2ccncc2)cc1)Nc1cccc([N+](=O)[O-])c1
60	COc1cc(C(=O)NCC(=O)NCCSc2ccc(Br)cc2)cc(OC)c1OC
61	CCN(CC(=O)NCc1ccc(F)cc1)C(=O)/C=C/c1cccs1
62	COCCn1c(C)cc(C(=O)COC(=O)Cc2n[nH]c(=O)c3ccccc23)c1C
63	CC(=O)NC12CC3CC(C1)CC(C(=O)Oc1ccc(N(C)S(=O)(=O)c4cc(C)ccc4C)cc1)(C3)C2
64	COc1ccccc1C1C(C#N)=C(N)Oc2c1oc(CO)cc2=O (stereo not drawn)

compound no.,57,58,59,60,61,62,63,64
Sa RN4220 lethal,1.2,-14,-2.8,1.1,2.6,2.0,-6.2,1.9
BJeLR viability,8,16,nt,0,15,nt,5,-3
Autofluor counter,4463,4272,nt,6997,3204,?,6917,3411
ugtP null kill,4,-5,0,6,-2,-5,-1,1
Mtb hypoxia rep,1,4,3,9,-2,8,10,9
Mtb hypoxia rep growth,8,4,-4,9,1,-2,10,10
PrP UTR inh,-29,-9,nt,-13,2,-21,-26,14

65	COc1cccc(C2=NOC(C(=O)N3CCc4ccccc4C3)C2)c1 (stereo not drawn)
66	CC(C)C[C@@H](COc1ccccc1)N1CCN(C)CCC1=O
67	Nc1c2c(nc3sc4c(c13)CCCC4)CCCCC2
68	COc1ccc(NC(=S)c2ccncc2)cc1
69	Cc1c(C=Nn2cnnc2)c2ccccc2n1CCOc1ccc(Cl)cc1
70	Cc1csc(SCCn2c(N3CCOCC3)nc3c2c(=O)[nH]c(=O)n3C)n1
71	CCOC(=O)c1c(NC(=O)CSc2c[nH]c3ccccc23)sc2c1CCCC2
72	Cc1ccc(C)c(N2CCN(CCN3CCCCC3)CC2)c1
73	O=S(=O)(N/N=C\c1ccccc1O)c1ccc(Cl)cc1

compound no.,65,66,67,68,69,70,71,72,73
Sa RN4220 lethal,2.0,nt,6.6,3.3,1.5,4.4,-19,-0.1,nt
BJeLR viability,-8,4,9,-2,nt,-11,5,4,1
Autofluor counter,6237,3457,2462,2366,nt,6152,6221,3297,5252
ugtP null kill,4,nt,-7,3,-6,8,-6,4,nt
Mtb hypoxia rep,nt,nt,12,-8,1,nt,8,16,nt
Mtb hypoxia rep growth,nt,nt,21,-11,-4,nt,10,9,nt
PrP UTR inh,-19,-6,-93,-18,nt,-16,-11,-2,-15
